Source: PubChem (National Center for Advancing Translational Sciences (NCATS))
gsp ag – agonists of gsp mutant (McCune-Albright syndrome) | gsp mutant cells, cAMP HTRF, 30 min; control for the full effect not named in the record | Potency, µM (highest dose often 76.9 µM), inactives show at the top dose activation (cAMP increase), usual class: activators | actives 0.13% (n = 340,000); active = well fitted activation curve with a large enough effect; inconclusive = small, poorly fitted or top-dose-only effect, or another doubt; inactive = no such curve, though single readings can be large or run the other way; cell line not stated here;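 further: phosphodiesterase inhibitor Ro 20-1724 added with compounds to block cAMP breakdown; potency means the concentration at half of the fitted maximal effect; nearly all actives have a fitted effect of over 60% in size; about a fifth of the inactives were tested at one dose only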
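Cells stably selected in G418 were plated at 2000/well, grown 16-24 hr, then given compounds in DMSO with the PDE inhibitor […] (300 uM solution added) for 30 min at 37C; cAMP was read by HTRF.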
Menin-MLL FL inh – inhibitors of human menin-MLL interaction, wild-type MLL peptide; Fluorescence polarization, fluorescein-MLL peptide displacement from menin; FP activity change, % at 61.4 µM; 290,000 tested, under 10 active; AID 1766; inconclusive = falling polarisation curve, or a change in total fluorescence; inactive = total fluorescence flat and polarisation flat or rising; no compound was filed as active; the % refers to the polarisation; negative = inhibition;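 further: % of control where 0% means no effect; inhibitors lower the polarisation; unlabelled MLL peptide was the positive control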
TRPV1 potentiator – potentiators of human vanilloid receptor 1 (TRPV1); TRPV1-expressing cells, Fluo-8 calcium influx, capsaicin EC20 potentiation; host cell line not named in the record; control for the full effect not named in the record; actives 0.02% (n = 320,000); potentiation, % at 8.33 µM; active means potentiation above 80%; inconclusive means 30% to 80%; inactive means below 30%; further: 0% is about no effect
Target sequence (Q8NER1 whole entry, looked up): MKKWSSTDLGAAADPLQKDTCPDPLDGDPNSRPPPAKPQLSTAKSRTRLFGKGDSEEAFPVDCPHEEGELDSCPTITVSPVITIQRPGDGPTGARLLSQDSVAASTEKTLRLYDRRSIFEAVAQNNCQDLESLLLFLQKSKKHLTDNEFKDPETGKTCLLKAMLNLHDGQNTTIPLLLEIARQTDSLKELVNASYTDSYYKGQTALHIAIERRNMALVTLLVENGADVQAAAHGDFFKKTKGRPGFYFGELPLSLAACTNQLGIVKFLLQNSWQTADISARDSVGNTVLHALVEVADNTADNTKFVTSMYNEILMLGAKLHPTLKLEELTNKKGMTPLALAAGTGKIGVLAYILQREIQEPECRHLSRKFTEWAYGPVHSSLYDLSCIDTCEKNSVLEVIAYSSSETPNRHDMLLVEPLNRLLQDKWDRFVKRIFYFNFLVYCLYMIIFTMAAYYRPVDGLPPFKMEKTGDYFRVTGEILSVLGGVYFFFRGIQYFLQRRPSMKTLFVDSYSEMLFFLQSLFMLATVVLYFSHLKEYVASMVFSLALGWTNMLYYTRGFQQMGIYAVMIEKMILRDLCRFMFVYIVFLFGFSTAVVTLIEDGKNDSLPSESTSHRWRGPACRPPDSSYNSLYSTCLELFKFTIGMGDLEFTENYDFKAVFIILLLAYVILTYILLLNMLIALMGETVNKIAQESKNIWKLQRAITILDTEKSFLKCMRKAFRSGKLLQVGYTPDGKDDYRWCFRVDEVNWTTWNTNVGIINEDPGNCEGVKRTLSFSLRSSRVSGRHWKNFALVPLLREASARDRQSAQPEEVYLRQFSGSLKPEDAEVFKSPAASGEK
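TRPV1-expressing cells were cultured overnight at 35.5C and loaded with Fluo-8 calcium dye for 40 to 90 min at room temperature. After a 10 s baseline, compound was added and calcium influx was read kinetically for 3 min (ex 480/em 520 nm).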
ClpP mod – qHTS Assay for Activators of ClpP; ATP-dependent Clp protease proteolytic subunit (Bacillus subtilis (strain 168)), P80244; purified B. subtilis ClpP, FRET peptide cleavage, 20 min; actives 1.9% (n = 340,000); Potency, µM (top dose mostly 57.5 µM), for inactives: at the top dose activity change, negative = active; AID 651965, 2013; active = well fitted falling curve with a large enough effect; inconclusive = small, poorly fitted or top-dose-only effect; inactive = no such curve, though single readings can be large or run the other way; further: potency means the concentration at half of the fitted maximal effect; the source files actives as falling curves though it sought activators and does not explain the sign; nearly all actives have a fitted effect of over 65% in size; many hits overshoot -100%
Target sequence (P80244 whole entry, looked up): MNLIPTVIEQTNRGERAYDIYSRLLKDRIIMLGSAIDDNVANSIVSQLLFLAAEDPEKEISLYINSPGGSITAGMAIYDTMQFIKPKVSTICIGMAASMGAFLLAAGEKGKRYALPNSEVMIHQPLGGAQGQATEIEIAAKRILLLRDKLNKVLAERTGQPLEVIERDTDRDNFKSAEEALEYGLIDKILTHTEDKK
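Purified B. subtilis ClpP, 10 microg/mL final in Tris/HCl pH8 with KCl, BSA, glycerol and Tween-20, cleaved an Abz/nitrotyrosine-quenched decapeptide. Fluorescence (ex 320, em 430) was read at 0 and 20 min at room temperature. Delta was normalized to 5.8 microM ADEP and DMSO/no-enzyme controls.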
gsp antagonist – antagonists of gsp mutant (McCune-Albright syndrome); gsp-mutant cells, cAMP HTRF, 30 min; control for the full effect not named in the record; Potency, µM (top dose mostly 76.9 µM), without a hit: at the top dose activity change, negative = inhibition, actives largely listed as inhibitors; actives 0.4% (n = 340,000); active = falling curve of any shape with a large fitted effect; inconclusive = falling curve, mostly with a smaller effect; inactive = flat or rising curve; cell line not stated here;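 further: intracellular cAMP measured with PDE inhibitor Ro 20-1724 present during compound exposure; potency means the concentration at half of the fitted maximal effect; on the % scale 0 is the no-effect control and ±100 the full control effect; nearly all actives have a fitted effect of over 65% in size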
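Cells in G418 medium, seeded 16-24 h, 37C; buffer exchange to DPBS + 1 mM CaCl2, 0.5 mM MgCl2, 0.05% BSA; cpds in DMSO + […] (300 uM stock), 30 min 37C; HTRF cAMP detection.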
Sfp PPTase inh – blocks B. subtilis Sfp PPTase activity; actives 3.5% (n = 310,000); AID 1490; Potency, µM, for inactives: max response, negative = inhibition, hits mostly inhibitors; Q9F4F7; Biochemical Sfp PPTase activity, qHTS; active means well fitted inhibition curve with a large enough effect; inconclusive means small, poorly fitted or top-dose-only effect, or another doubt; inactive means no such curve, though single readings can be large or run the other way;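 further: the enzyme is Sfp with the accession as filed and its product quenches rhodamine fluorescence; potency means the concentration at half of the fitted maximal effect; 0% = enzyme reaction without inhibitor and -100% = no enzyme wells; top concentration of the series not given in the record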
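Buffer: 50 mM Hepes-Na pH 7.6, 10 mM MgCl2, 0.01% Nonidet P-40, 0.01% BSA. Enzyme 15 nM, pre-exposed to compound 15 min; substrates then added and fluorescence change tracked over 30 min.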
D2 potentiator – human D2 receptor positive allosteric modulation; P14416; DiscoveRx D2 beta-arrestin cells, luminescence, 90 min; 100% = 57 uM dopamine signal; potentiation, % (test concentration not listed); actives 0.23% (n = 360,000); AID 624464; active = potentiation of 50% or more; inconclusive = 30% to 50%; inactive = 30% or less;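 further: compound concentration not given in the record; tested on top of an EC20 dose of dopamine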
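PathHunter D2 cells, attached overnight at 37 deg C, received compound in DMSO plus dopamine at EC20 (50 nM final) for 90 min at 37 deg C. Beta-arrestin recruitment was read as luminescence after 1 h with detection reagent at ambient temperature.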
* marks the source's active call; other numbers are inactive results; ? = inconclusive; . = not tested or not shown; & = joins results of further samples; [ ] = remark or other dose.

no.	compound	Sfp PPTase inh	Menin-MLL FL inh	gsp antagonist	TRPV1 potentiator	gsp ag	ClpP mod	D2 potentiator
1	Cc1ccc(N2CCN(C(=O)N3CCOCC3)CC2)cc1C	-11%	-0.1	6%	-2	-15%	.	0
2	Cc1nc2sc(C(c3ccc(Cl)cc3)N3CCN(CCO)CC3)c(O)n2n1 (stereo not given)	-2%	3.2	1%	10	1%	0.3%	-5
3	Cc1ccc(N2C(=O)Nc3cc(Cl)c(Cl)cc3N2O)cc1Cl	4%	2.5	6%	26	20%[15.4 µM]	.	-7
4	Cc1ccc(S(=O)(=O)N2CCC(=O)N(CCOC(=O)Nc3ccccc3C)CC2)cc1	11%	3.6	3%	4	18%	0.7%	-3
5	O=C(N/N=C/c1cccc(O)c1)c1cc(C2CC2)nc2ccccc12	21%	6.2	-3%	-7	5%	.	-3
6	CCC(C)NC(=O)C1CCC(CNS(=O)(=O)c2ccc3c(c2)CC(C)N3C(=O)C2CC2)CC1 (stereo not given)	3%	.	-17%	19	8%	-0.2%	-11
7	O=c1c2ccccc2nc2n1C(CSCc1ccc(Cl)cc1)CS2 (stereo not given)	-2%	-0.1	-18%	-9	?	-0.9%	4
8	CCOc1ccc(NC(=O)CN(C)C(=O)CCN2C(=O)C3CC=CCC3C2=O)cc1OCC (stereo not given)	.	.	1%	7	-20%	-0.7%	1
9	c1ccc2c(c1)OCCc1c-2[nH]c2ccccc12	16%	5.6	1%	-6	-2%	3.3%	-13
10	N#Cc1ccccc1OCC(=O)OCC(=O)NC1CCS(=O)(=O)C1 (stereo not given)	.	.	4%	-6	2%	-3.1%	-1
11	O=C(COC(=O)c1cccc(C(F)(F)F)c1)NC(=O)NC1CCCC1	.	.	10%	.	2%[15.4 µM]	1.1%	5
12	O=C(CN1CCOCC1)Nc1cccc([N+](=O)[O-])c1	.	.	10%	.	2%[15.4 µM]	.	-8
13	S=c1[nH]nc(-c2cc(-c3ccco3)[nH]n2)n1-c1ccccc1Cl	28µM*	?	-8%	-1	?	-1.8%	3
14	CC(OC(=O)CN(C)S(=O)(=O)c1ccc(Cl)cc1)C(=O)Nc1ccc(N2CCOCC2)cc1 (stereo not given)	14%	-4.0	1%	-15	-12%	-1.6%	2
15	CCOC(=O)Cn1c(=O)n(CC(=O)OCC)c2ccccc21	7%	7.9	-6%	-8	-39%[inhibitor]	0.4%	-5
16	Cc1ccc(N(CC(=O)N2CCOCC2)S(C)(=O)=O)cc1Cl	-2%	-0.6	7%	8	-2%	-2.5%	-2
17	O=C(NC1CCCCC1)N1CCCCCCC1	26%	1.9	0%	-3	?	-3.9%	1
18	CC(C)(C)c1ccc(C(=O)CSc2n[nH]c(=O)[nH]c2=O)cc1	13%	5.3	-17%	5	-117%[inhibitor]	-1.2%	-1
19	O=C(Nc1cccc(Br)c1)c1ccccc1-c1ccccc1	16%	-1.1	?	2	6%	-2.2%	5
20	C=CCn1c2ccccc2c2nn(C)c(=S)nc21	2%	?	-3%	6	-2%[15.4 µM]	-0.5%	-5
21	Cc1cccc(C)c1NC(=O)CN(C)C(C)C(=O)NCC(=O)Nc1ccc(F)c(F)c1F (stereo not given)	.	.	5%	-1	6%	-1.0%	-1
22	NS(=O)(=O)c1ccc(S(=O)(=O)N2CCCC2)cc1	9%	2.0	2%	2	-44%[inhibitor]	2.9%	26
23	O=C(/C=C/c1ccccc1)Oc1ccc(C(=S)N2CCOCC2)cc1	-11%	-0.9	10%	24	-9%[15.4 µM]	.	-6
24	O=C(NCc1nc2ccccc2[nH]1)C1=C[C@H](c2ccc(Br)cc2)C[C@H](OCc2ccc(CO)cc2)O1	20%	8.9	-18%	19	-2%	-0.2%	-8
25	O=C(NCC1CCCO1)c1c(O)c2cccc3c2n(c1=O)CCC3 (stereo not given)	5%	1.0	27%	-37	?	-27%	-8

The results go on.
no.	compound	Sfp PPTase inh	Menin-MLL FL inh	gsp antagonist	TRPV1 potentiator	gsp ag	ClpP mod	D2 potentiator
26	COc1ccc(NC(=S)N2CCCC2)cc1	13%	2.1	7%	2	-18%	0.9%	-11
27	CC1=C(C(=O)OC(C)(C)C)C(c2ccco2)C(C#N)=C(N)O1 (stereo not given)	5%	-0.5	-11%	5	21%	0.0%	-12
28	CC(=O)N1CCC(C(=O)c2ccc(Cl)cc2)CC1	13%	-0.4	-5%	-17	-26%	-1.8%	-7
29	Cc1ccc(C)c(Oc2cc(NN3CCCCC3)c([N+](=O)[O-])cc2[N+](=O)[O-])c1	4%	2.8	3%	-16	?	0.6%	-4
30	CCOc1ccccc1NC(=O)NC(=O)N(C)S(C)(=O)=O	-4%	-1.9	10%	4	11%	-0.3%	-14
31	COc1cnc(-c2ccccc2)nc1OC	2%	0.1	-1%	-4	24%	.	-2
32	COc1ccc(OC)c(-n2c(CNC3CCN(Cc4ccccc4)CC3)nc3ccccc3c2=O)c1	15%	3.0	12%	-6	0%	-0.1%	-17
33	Cc1ccc(-c2cn3c(=O)cc(C)[nH]c3n2)cc1	1%	19	3%	-5	-35%[inhibitor]	?	-12
34	Cc1cc2nc(CSc3ccccc3)cc(=O)n2[nH]1	-15%	9.6	-11%	0	-3%[15.4 µM]	.	-8
35	CC1=NC(C(F)(F)F)(C(F)(F)F)C(C#N)=C(C)N1	?	2.5	3%	-4	-33%[inhibitor]	-0.6%	-7
36	COc1ccc(OCCC(=O)NCC23CC4CC(CC(C4)C2)C3)cc1	-1%	-0.4	-10%	-6	-35%[inhibitor]	.	-5
37	O=C(Nc1nnc(S(=O)(=O)N2CCOCC2)s1)c1cccc(Br)c1	19%	4.2	45µM*	-7	8%	-6.3%&-3.7%	11
38	N/C(=N\NC(=O)Nc1ccccc1)c1ccccn1	?	-1.0	6%	5	8%[15.4 µM]	.	-6
39	Cc1ccccc1CSc1nc(C(C)(C)C)cc(=O)[nH]1	12%	2.1	13%	8	2%	.	-3
40	COc1nnc(-c2ccc(N3CCCCC3)c(NC(=O)C3CCCCC3)c2)c2ccccc12	15%	0.4	-15%	-6	12%	-12%	6
41	CC1=CC2=NC(=O)/C(=C\c3cc(C)n(-c4ccccc4F)c3C)C(=N)N2O1	0%	3.1	0%	-20	1%[15.4 µM]	-2.0%	-12
42	CCOc1ccccc1Nc1ncnc2c1cnn2-c1ccccc1	?	-1.4	-14%	4	?	-27%	-2
43	O=C(NCc1ccccn1)C1CCCN(S(=O)(=O)c2cccc3nsnc23)C1 (stereo not given)	-3%	1.5	-10%	1	-9%	-0.1%	0
44	N=c1oc2ccc(Br)cc2cc1C(=O)NCc1ccccc1	8%	6.8	-2%	-2	-81%[inhibitor]	-3.3%	12
45	COc1cc2cc(C(=O)N/N=C/c3ccccc3Cl)[nH]c2cc1OC	-11%	6.5	-33%	9	17%	?	-19
46	Cn1cnc2c(oc3ccccc32)c1=O	.	.	1%	.	24%[15.4 µM]	.	-3
47	O=C(Nc1nncs1)C(Sc1ccccc1)c1ccccc1 (stereo not given)	10%	4.9	-3%	10	6%	1.2%	-20
48	C/C(Cn1nc([N+](=O)[O-])cc1C)=N\NC(=O)COc1ccccc1[N+](=O)[O-]	15%	-3.3	-1%	-5	?	-0.5%	-2
49	CN(CC(=O)Nc1cccc(F)c1)C(=O)/C=C/c1ccc2ccccc2n1	17%	.	-4%	3	?	-4.7%	-8
50	O=C(O)CC1COc2ccccc2N1S(=O)(=O)c1ccc(Br)cc1 (stereo not given)	18%	-8.6	-3%	1	0%[15.4 µM]	-3.6%	-6

The list goes on:
no.	compound	Sfp PPTase inh	Menin-MLL FL inh	gsp antagonist	TRPV1 potentiator	gsp ag	ClpP mod	D2 potentiator
51	CCOC(=O)C1=C(C)N(C)C(=S)NC1c1cc(OC)ccc1OC (stereo not given)	8%	-5.1	6%	-1	-7%[15.4 µM]	.	-5
52	COC(=O)Cc1ccc(NC(=O)c2cccs2)cc1	2%	1.9	-5%	-11	-11%	1.5%	-18
53	COC(=O)c1ccc(COC(=O)c2c(C)nn(Cc3ccccc3Cl)c2Cl)o1	-5%	1.4	-6%	5	18%	-2.1%	-6
54	CCCCCCC(=O)Nc1cc2c(C)cc(=O)oc2cc1C	-17%	5.3	-3%	5	-28%	-2.2%	-12
55	COc1ccc(CN2CCC(n3nccc3NC(=O)CCCc3ccccc3)CC2)cc1C	2%	-4.3	-9%	-11	-1%	-0.3%	-22
56	COc1ccc2oc(C(=O)OCc3c(C)noc3C)c(C)c2c1	-18%	-0.6	-5%	-15	-1%[15.4 µM]	.	2
57	O=C(Nc1ccc(N2CCCCC2)cc1)c1ccc2ccccc2n1	?	-0.9	-14%	-11	-2%	-1.0%	-7
58	Cc1ccc(CN2CCC(C(=O)c3ccc(F)cc3)CC2)cc1	.	.	.	.	-41%[inhibitor]	-1.4%	-26
59	COc1ccc(N2CCN(C(=O)C3(S(=O)(=O)c4ccc(C)cc4)CC3)CC2)cc1	16%	4.5	-9%	2	11%	.	1
60	CCn1c(=O)n(CC)c2cc(N3CCCC3)c(NC(=O)c3ccc(F)cc3)cc21	-19%	-3.6	?	-12	-18%	-0.6%	9
61	COCCN(C(=S)Nc1ccccc1C)C(C)c1cccnc1 (stereo not given)	-4%	.	9%	-12	-26%	2.7%	-6
62	Cc1ccc(CNC(=O)C2CCCN(S(=O)(=O)c3cnc[nH]3)C2)cc1 (stereo not given)	-18%	0.1	-6%	-2	10%	-4.0%	-5
63	CN(C(=O)CSc1nncn1C)C1CCCN(Cc2ccccc2F)C1 (stereo not given)	8%	-0.5	13%	-16	25%	-0.2%	-2
64	O=C(N/N=C/C1CC2CCC1C2)c1c[nH]c2ccccc12 (stereo not given)	2%	-5.2	3%	1	24%	-2.6%	-5
65	Cc1ccc(-c2c(C)n([O-])c3c([n+]2=O)CCCC3)cc1	12%	1.7	-5%	2	2%[15.4 µM]	.	-2
66	COc1ccc(C(=O)Nc2cccc(S(C)(=O)=O)c2)cc1OC	21%	-3.1	9%	7	0%[15.4 µM]	.	-8
67	Cc1cc(Sc2nc(N)ncc2[N+](=O)[O-])ncn1	22µM*	1.1	-15%	-4	7%[15.4 µM]	.	-18
